GLA inh pH 4.5: inhibitors of human alpha-galactosidase A at pH 4.5 | 230,000 tested, under 10 active | AID 1467 | P06280 | activity change, negative = inhibition, % at 105 µM | purified enzyme, 4-MU-alpha-Gal fluorescence, pH 4.5; inconclusive = small, poorly fitted or top-dose-only inhibition, or a rising curve; inactive = flat fitted curve, though single readings scatter; no compound was filed as active;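 further: 0% = full activity with enzyme and -100% = basal without enzyme; dose as in the result columns while the protocol names 77 µM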
miR-21 FLuc: raises the signal of a miR-21 reporter; HeLa miR-21 FLuc reporter, luciferase, 48 h; AID 2288; Potency, µM (series often up to 38.3 µM), for inactives: at the top dose reporter change, positive = more light; 340,000 tested, under 10 active; active = well fitted rising curve with a large enough effect; inconclusive = small, poorly fitted or top-dose-only effect; inactive = no such curve, though single readings can be large or run the other way;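 further: % of control where 0% means no effect; miR-21 action dims this reporter so a rising signal means less miR-21 action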
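HeLa cells endogenously expressing miR-21, stably carrying CMV-driven firefly luciferase with a downstream miR-21 binding site, 2000 cells/well. Titrations up to approximately 40 uM, 48 hours; luciferase luminescence read.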
Rango-impB inh: inhibitors of Rango-importin beta complex formation. Q14974. Rango CFP/YFP FRET sensor + importin beta, 45 min. Potency, µM (titrated, usually from 92.2 µM), inactives show at the highest dose inhibition of complex formation. 340,000 tested, 0.031% active. AID 540263; active = rising FRET ratio curve, often small or poorly fitted; inconclusive = mostly compound fluorescence or quenching in the first reads; inactive = flat curves in all reads;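 further: potency means the concentration at half of the fitted maximal effect; 0% = DMSO wells and 100% = buffer wells lacking importin beta; nearly all actives have a fitted effect of over 15% in size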
Target sequence (Q14974 whole entry, looked up): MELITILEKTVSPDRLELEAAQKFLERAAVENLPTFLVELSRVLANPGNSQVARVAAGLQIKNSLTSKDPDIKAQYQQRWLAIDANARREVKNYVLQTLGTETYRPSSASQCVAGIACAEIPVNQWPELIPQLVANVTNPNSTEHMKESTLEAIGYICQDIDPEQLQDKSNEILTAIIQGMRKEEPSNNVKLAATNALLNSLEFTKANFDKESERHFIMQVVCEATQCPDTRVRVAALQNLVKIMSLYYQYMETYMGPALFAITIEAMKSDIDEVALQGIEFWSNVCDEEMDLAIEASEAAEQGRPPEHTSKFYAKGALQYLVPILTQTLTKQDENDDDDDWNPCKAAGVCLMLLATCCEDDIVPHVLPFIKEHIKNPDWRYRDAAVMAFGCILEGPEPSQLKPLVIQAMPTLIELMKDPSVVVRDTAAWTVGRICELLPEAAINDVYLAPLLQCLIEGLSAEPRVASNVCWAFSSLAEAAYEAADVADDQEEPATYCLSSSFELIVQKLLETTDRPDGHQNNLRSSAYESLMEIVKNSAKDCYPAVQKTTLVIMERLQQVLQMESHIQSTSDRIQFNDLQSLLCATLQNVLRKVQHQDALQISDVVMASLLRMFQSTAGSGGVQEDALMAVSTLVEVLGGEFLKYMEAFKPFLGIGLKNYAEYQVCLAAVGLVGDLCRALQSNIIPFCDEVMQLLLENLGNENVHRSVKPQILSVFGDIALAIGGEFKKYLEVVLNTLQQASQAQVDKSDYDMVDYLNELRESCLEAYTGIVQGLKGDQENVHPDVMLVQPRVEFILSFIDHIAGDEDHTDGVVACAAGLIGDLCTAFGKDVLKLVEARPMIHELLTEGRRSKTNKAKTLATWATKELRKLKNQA
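FRET biosensor (snurportin 1 IBB flanked by EYFP and cerulean), 50 nM, with compound 5 min, then 0.125 microM importin beta in PBS, 1 mM DTT, 0.02% Tween-20, 0.1% BSA. CFP/YFP ratio read after 45 min at room temperature; pre-read flags interference.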
Rango release inh: inhibitors of RanGTP-induced Rango-importin beta complex dissociation; Biochemical FRET Rango-importin beta, RanGTP-induced dissociation; Potency, µM (doses to about 46.1 µM), for inactives: at the highest dose activity change, negative = inhibition; 340,000 tested, 0.071% active; AID 540253; active means falling FRET ratio curve, often poorly fitted, with flat reads before Ran was added; inconclusive means other falling curves, or compound fluorescence or quenching; inactive means flat or rising ratio curve;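 further: potency means the concentration at half of the fitted maximal effect; % of control where 0% means no effect; nearly all actives have a fitted effect of over 45% in size; -100% = wells without RanGTP and RCC1; the record marks most hits as doubtful in a second field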
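Compounds sat 5 min at room temperature with 0.1 uM Rango biosensor plus 0.25 uM importin beta, then FRET pre-read. RanGTP-RCC1 (0.6 uM Ran, 2mM GTP, 0.2 uM RCC1) added for 45 min, and the CFP/YFP post-read measured blocked complex dissociation.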
Numbers without * were called inactive; ? = inconclusive; nt = not tested or not shown. A portion of the library. The share of hits here may be higher or lower than overall.

GLA inh pH 4.5 | Rango release inh | structure | miR-21 FLuc | Rango-impB inh
6 | 7% | CNC(=O)COc1ccc(S(=O)(=O)Nc2ccc(C)cc2)cc1 | -1% | -1.0%
2 | 1% | Cc1cc(-c2nn(-c3ccccc3F)cc2CN2CCN(c3ccncc3)CC2)c(C)s1 | 5% | 2.2%
nt | -9% | Cn1cnnc1SCC(=O)NNC(=O)c1ccc([N+](=O)[O-])cc1 | nt | -3.3%
nt | 12% | CCN(C(=O)COC(=O)/C=C/c1ccco1)C1CCCCC1 | nt | -0.9%
nt | 14% | CC[C@]12c3[nH]c4ccccc4c3CCN1C(=O)C(CC(=O)NC/C=C(\C)CCC=C(C)C)C[C@@H]2C(=O)N1CCN(C(=O)c2ccco2)CC1 (some centres not stated) | nt | -0.4%
1 | 1% | COC(=O)C1=NN(N=O)C2(CC(=O)N(c3cc(C)cc(C)c3)C2=O)C1 (configuration not stated) | -6% | 0.3%
nt | 2% | O=S(=O)(NCc1ccccn1)c1cc(Cl)ccc1Cl | 0% | 3.5%
3 | 13% | CCN(CC)C(=O)CSc1nnc(-c2cccc(OC)c2)o1 | -39% | 3.2%
nt | 12% | O=C(O)c1ccc(NC(=O)C(c2ccccc2)c2ccccc2)cc1 | 6% | 0.6%
-1 | -18% | CN(C)CCNC(=O)c1onc(CSc2ccc(F)c(F)c2)c1C(=O)NCCN(C)C | -11% | -0.2%
nt | 1% | COc1ccccc1N1CCN(S(=O)(=O)CCNC(=O)c2cccc(F)c2)CC1 | nt | 0.8%
-1 | -1% | CC(=O)Nc1nc(-c2ccccc2)ns1 | -37% | 6.9%
nt | 13% | CN(C(=O)COC(=O)c1cccs1)c1c(N)n(Cc2ccccc2)c(=O)[nH]c1=O | nt | -3.5%
nt | -6% | COc1ccc(NC(=O)Cc2nnc(SCC(=O)NC3CCCCC3C)n2C)cc1 (configuration not stated) | -6% | -2.3%
4 | 17% | O=C(CN1C(=O)COc2ccc(S(=O)(=O)N3CCOCC3)cc21)NCc1ccco1 | 0% | 0.1%
-1 | 22% | COc1ccc(CN2CCOCC2)cc1 | -16% | -1.6%
nt | -12% | CC(C)CCC1(CCO)C(=O)N=C(N)NC1=O (configuration not stated) | nt | -0.9%
nt | -3% | CC(C)(C)NCCC(O)c1cc(C(F)(F)F)nc2c(C(F)(F)F)cccc12 (configuration not stated) | nt | ?
2 | -7% | O=C(COC(=O)C1CCN(S(=O)(=O)c2cccs2)CC1)c1cc2ccccc2o1 | -11% | 0.5%
nt | 0% | COc1ccccc1CNc1nc(=S)[nH]c2cc(OC)c(OC)cc12 | -1% | -0.8%
5 | 2% | O=C(c1ccccc1Oc1nnnn1-c1ccccc1)N1CCOCC1 | -8% | -1.7%
nt | -9% | CC(C)(CNc1ccc(S(=O)(=O)C(F)(F)F)cc1[N+](=O)[O-])N1CCOCC1 | -19% | -1.0%
nt | -1% | O=C(N/N=C/c1ccccc1F)NC12CC3CC(CC(C3)C1)C2 | -25% | -1.6%
nt | 4% | O=C1c2ccccc2C(=O)N1CCOc1ccccc1Cl | 0% | -1.9%
-14 | -3% | COc1cc2c(cc1NC(=O)CSc1nccn1C)oc1ccccc12 | -43% | -0.5%
nt | 5% | CC(CN1CCC(n2nccc2NC(=O)c2ccccc2Cl)CC1)c1ccccc1 (configuration not stated) | -2% | 0.0%
3 | -9% | CC1Cc2nc(SCC(=O)Nc3ccc4c(c3)OCO4)n(CCc3ccccc3)c(=O)c2S1 (configuration not stated) | -9% | 1.3%
9 | -12% | Cc1ccc(C)c(C2NC(=O)c3ccccc3N2)c1 (configuration not stated) | 22% | 0.0%
nt | -1% | CC1(C)SC2C(NC(=O)C3(N)CCCCC3)C(=O)N2C1C(=O)O (configuration not stated) | nt | 2.5%
-8 | -5% | Cc1onc(-c2ccccc2Cl)c1C(=O)Nc1cccc2cccnc12 | 26% | -3.1%
-9 | 1% | COc1ccc(S(=O)(=O)N2CCC[C@H]2C(=O)NCc2ccc(Cl)cc2)cc1 | 1% | -1.8%
-3 | -10% | CCC(C)(C(=O)NC1CCCC1)N(Cc1ccco1)C(=O)c1ccccn1 (configuration not stated) | -4% | -3.5%
-10 | -4% | S=C(NCc1ccco1)N/N=C/c1cccnc1 | 2% | -1.1%
nt | 22% | Cc1csc2nc(COC(=O)c3cccc(N(C)C)c3)cc(=O)n12 | nt | -0.4%
nt | -3% | CC(C)CCC(O)(c1ccccc1)C(CN1CCOCC1)c1ccccc1 (configuration not stated) | 15% | 0.5%
-10 | -20% | CS(=O)(=O)c1ccccc1-c1nc(-c2cccc(Cl)c2)no1 | -18% | 1.9%
nt | 15% | COC(=O)C(NC(=O)CCc1nnc2ccc(N3CCC(C)CC3)nn12)C(C)C (configuration not stated) | -6% | -0.3%
-6 | 4% | CCOc1cc(C(N)=O)cc(Cl)c1OCC | 9% | 5.6%
nt | -1% | CCc1ccccc1Nc1nc(N)nc(COC(=O)CCNS(=O)(=O)c2ccccc2)n1 | nt | -3.6%
nt | -8% | NC(=NCCc1ccccc1)NC(=O)c1cc(Cl)ccc1O | nt | -1.6%

Overlap with the part before: seven entries, then new ones.
GLA inh pH 4.5 | Rango release inh | structure | miR-21 FLuc | Rango-impB inh
nt | 22% | Cc1csc2nc(COC(=O)c3cccc(N(C)C)c3)cc(=O)n12 | nt | -0.4%
nt | -3% | CC(C)CCC(O)(c1ccccc1)C(CN1CCOCC1)c1ccccc1 (configuration not stated) | 15% | 0.5%
-10 | -20% | CS(=O)(=O)c1ccccc1-c1nc(-c2cccc(Cl)c2)no1 | -18% | 1.9%
nt | 15% | COC(=O)C(NC(=O)CCc1nnc2ccc(N3CCC(C)CC3)nn12)C(C)C (configuration not stated) | -6% | -0.3%
-6 | 4% | CCOc1cc(C(N)=O)cc(Cl)c1OCC | 9% | 5.6%
nt | -1% | CCc1ccccc1Nc1nc(N)nc(COC(=O)CCNS(=O)(=O)c2ccccc2)n1 | nt | -3.6%
nt | -8% | NC(=NCCc1ccccc1)NC(=O)c1cc(Cl)ccc1O | nt | -1.6%
nt | 1% | COc1ccc(S(=O)(=O)N2CCCC2)cc1NC(=O)c1ccccc1F | 1% | 0.0%
8 | -13% | Cc1ccccc1-n1ncc(C(C)NC(=O)c2ccccc2)c1C (configuration not stated) | -13% | 0.5%
nt | -17% | O=C1CCC[C@@H]2C[C@@]3(C[C@@H]4CCN1[C@H]24)Nc1cc(Cl)c(Cl)cc1NC3=NCc1ccccc1 | nt | 0.5%
-7 | 1% | O=C(COC(=O)c1cccc(Br)c1)NCCC1=CCCCC1 | 2% | 3.0%
? | ? | OC[C@@H]1[C@@H](c2ccccc2)C(c2cccc(Cl)c2)=NN1c1ccccc1 | nt | ?
nt | -9% | COc1ccc(C(CNC(=O)c2ccc(OCc3ccccc3)cc2)N2CCOCC2)cc1 (configuration not stated) | nt | -1.4%
nt | 0% | CCc1cc(C(=O)N2CCCC(C(=O)c3ccc(Cl)cc3)C2)no1 (configuration not stated) | 0% | 2.2%
nt | -7% | COc1ccccc1NC(=O)Cn1cc(C(=O)C(=O)N2CCOCC2)c2ccccc21 | -4% | -0.4%
nt | 7% | CCc1nc(N2CCN(S(=O)(=O)c3ccc(Br)cc3)CC2)c2c(C)c(C)sc2n1 | nt | 1.0%
nt | 0% | Cc1cc(NC(=O)c2ccccc2C)n(-c2cccc(F)c2)n1 | -13% | 3.6%
-2 | -21% | O=C(COC(=O)CCc1c[nH]c(=O)[nH]1)Nc1cccc(Cl)c1 | -2% | ?
nt | 6% | Cc1nc(Cc2nnc(SC(C)C(=O)N3c4ccccc4NC(=O)C3(C)C)o2)cs1 (configuration not stated) | nt | -2.9%
5 | -27% | Cc1ccc(N=C2NC(=O)S/C2=C\c2ccco2)cc1 | -25% | ?
-2 | 18% | Cc1[nH]c2ccc(F)cc2c1CCN(Cc1ccncc1)C(=S)Nc1ccccc1 | 20% | 2.1%
nt | 1% | Cc1ccc(C)c(NC(=O)C2CCN(C(=O)c3cccs3)CC2)c1 | 2% | -0.5%
-2 | -14% | O=C(CN1CCN(Cc2ccc(F)cc2Cl)C1=O)NCc1cccs1 | 1% | -2.4%
nt | 4% | Cc1ccc(NC(=O)CN(C)C(=O)CSc2nnc(C)s2)cc1 | nt | -2.3%
-13 | 10% | COC(=O)COc1ccc(-n2cnnn2)cc1 | 0% | 4.1%
nt | 6% | OCCNc1ncnc2c1nnn2Cc1ccccc1 | -12% | -0.7%
5 | ? | CCOC(=O)c1c(/N=C/C2=C(O)CCCC2=O)sc2c1CCCC2 | -9% | ?
nt | ? | O=[N+]([O-])c1ccc(N/N=C/C=C/c2ccco2)cc1 | nt | ?
5 | -28% | Cc1c(OCc2nn[nH]n2)ccc2c3c(c(=O)oc12)CCCC3 | 5% | 0.2%
nt | 10% | COC(=O)C1CCN(C(=O)COc2ccc(N(C)S(=O)(=O)c3ccc(C)cc3)cc2)CC1 | nt | 2.3%
-14 | -4% | Cc1nn(CCOc2ccccc2)c(=O)n1-c1cccc(F)c1 | -23% | -2.2%
nt | -9% | COc1ccc(S(=O)(=O)N2CCN(C(=O)c3cc(-c4ccccc4OC)n[nH]3)CC2)cc1 | 12% | 2.7%
nt | -15% | Cn1cc(C[C@H](NC(=O)OC(C)(C)C)C(=O)N[C@H](CO)Cc2ccccc2)c2ccccc21 | nt | 4.5%
3 | ? | O=[N+]([O-])c1ccc(C2=Nn3cnnc3SC2)cc1 | -1% | 4.5%
-2 | 2% | O=C(c1ccc(Cl)c(S(=O)(=O)NCc2ccco2)c1)N1CCN(c2ccccc2F)CC1 | 27% | -0.7%
2 | -7% | CN(C)C(=O)NC(Nc1cccc([N+](=O)[O-])c1)C(Cl)(Cl)Cl (configuration not stated) | 7% | -0.5%
nt | -10% | Fc1ccc(CN2CCN(c3ncccn3)CC2)c(F)c1 | -4% | -0.7%
4 | 2% | CCCOc1ccc(CSC(=N)N)cc1C(=O)OC | 0% | 0.8%
-26 | 4% | Cn1nnc(NC(=O)c2cccc(F)c2)n1 | -7% | 10%
nt | -7% | COc1ccc(NC(=O)c2ccc3c(=O)n(CC4CCCO4)c(=S)[nH]c3c2)c(OC)c1 (configuration not stated) | 0% | -0.1%
-2 | -4% | CN(c1ccc(C(=O)N2CCc3ccccc3C2)cc1)S(C)(=O)=O | -32% | 2.3%
-2 | -5% | COc1ccc(NC(=O)c2nc[nH]c2C(=O)N2CCC(C)CC2)cc1 | -5% | 1.4%
-12 | -5% | Cc1ccc(S(=O)(=O)Nc2nc3ccccc3nc2NCc2ccc3c(c2)OCO3)cc1C | 0% | -1.4%
nt | -3% | O=C(c1ccc(F)cc1)C1CCN(C(=S)Nc2ccc(F)cc2)CC1 | 10% | -1.0%
nt | 5% | CCN(CC(=O)Nc1c(F)cccc1F)C(=O)CCNC(=O)c1ccc([N+](=O)[O-])cc1 | nt | 0.2%
0 | 1% | CCc1c(C)nc2cc(C)[nH]n2c1=O | -4% | -0.1%
nt | 0% | Cc1ccc(S(=O)(=O)c2nc(S(C)(=O)=O)sc2N2CCCCCC2)cc1 | -4% | -0.2%
4 | 22% | COc1ccc(OC)c(NC(=O)CN(C)CC(=O)Nc2ccccc2Br)c1 | -2% | -0.8%
nt | -17% | COc1cccc(NC(=O)c2cccc(Cl)c2)c1 | nt | -0.6%
1 | 0% | COc1ccc(NC(C)=O)cc1NC(=O)c1ccc(C#N)cc1 | -5% | -3.5%
-3 | -12% | Cc1ccc(/C=N/NC(=O)Cn2nnc(N)n2)o1 | 1% | 1.4%
-3 | 12% | COc1ccc(OC)c(-n2c(-c3cccc(O)c3)n[nH]c2=S)c1 | -5% | -0.7%
nt | -16% | COc1ccccc1CCNC(=O)C(=O)NCC1OCCN1S(=O)(=O)c1cccs1 (configuration not stated) | -11% | -1.2%
-19 | -4% | Cc1cc(C(=O)N2CCc3c([nH]c4ccccc34)C2c2c(F)cccc2Cl)no1 (configuration not stated) | -1% | -0.4%
nt | -5% | COc1ccccc1-c1noc(CCC(=O)NC2CCCC2)n1 | -12% | -1.1%

Source: PubChem BioAssay
